Screening results as filed in PubChem.
BasE inh: BasE siderophore enzyme inhibitors, primary screen, biochemical, Acinetobacter baumannii ATCC 17978, fluorescence polarization | purified BasE, fluorescence polarization binding displacement | AID 485350, 2010 | inhibition, % (no concentration beside the values) | 0.1% of 84,000 active;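 active = both replicates above 25% with normal brightness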;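 note: 0% = negative plate control signal and 100% = positive plate control signal; stock transfer was 100 nL into about 30 µL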
KSHV LANA nucl: inhibitors of KSHV LANA-nucleosome binding, primary screen, biochemical, fluorescence polarization, FITC-LANA1-23, chicken nucleosomes; 0.3% of 51,000 active; FITC-LANA1-23 / chicken nucleosome fluorescence polarization; stronger effect = lower value; z-score (test concentration not listed);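 active = both repeat wells score below -2 in polarization z-score versus plate sample wells, excluding overly bright wells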;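 note: 100 nL library stock added to about 30 µL; numbers are from one replicate; some results filed as inactive read as strong as hits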
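Assay system: FITC-LANA peptide and chicken nucleosomes; input: 240 nM purified chicken nucleosomes (480 nM peptide binding sites), final; also added: 50 nM FITC-LANA1-23 probe; medium: TEN-BT buffer, pH 7.5; doses: pin-transferred compound, 100 nL; times: 10–45 min, room temperature; technique: fluorescence polarization; replication: duplicates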
An asterisk follows results filed as active; / = not tested or not shown; & = joins results of further samples. This is a subset. The share of hits here may be higher or lower than overall.

structure	BasE inh	KSHV LANA nucl
Cc1ccc(-n2c(N)cc(=O)[nH]c2=O)cc1	-0.7	-0.377
Cc1ccc(NC(=O)CC(=O)O)cc1	-0.8	0.543
CC(C)=CCOc1cc(C)cc2oc(=O)cc(-c3ccccc3)c12	2.6	/
Cn1c(=O)c2c(SCCN3CCCC3)nc(C3CCCC3)nc2n(C)c1=O	0.1	0.734
CN(C)C(=O)CSc1nc2cc(S(=O)(=O)N3CCOCC3)ccc2o1	1.2	/
COc1ccc2[nH]c3c(=O)n(CCCCC(=O)N4CCN(c5ncccn5)CC4)c(=S)[nH]c3c2c1	1.0	-0.094
Cc1ccc(-c2nnc(SCc3ccccc3F)o2)cc1	2.0	-0.414
CNc1ncc(C(=O)c2ccccc2)s1	/	2.61
NNc1nc2sc3c(c2c(=O)[nH]1)CCCC3	-0.2	0.194
O=C(NC(=S)Nc1nn[nH]n1)C1CCCCC1	1.5	0.183
COc1ccc2nc(Cl)c(/C=N/NC3CCS(=O)(=O)C3)cc2c1 (stereo not given)	1.4	/
CC(C)=CC(=O)N1CCN(c2cccc(C(F)(F)F)c2)CC1	-0.3	/
CC(C)(C)c1csc(Cc2ccc(-c3csnn3)cc2)n1	2.6	/
CCCCc1nc2sc3c(=O)n(N)cnc3c2c2c1CCC2	-0.3	-1.47
CC(COc1ccccc1)N(CCCl)Cc1ccccc1 (stereo not given)	1.6&-0.6	-0.597&0.239&-0.171&0.006
Cc1ccnn1CCC(=O)O	-0.8	-0.701
CCN(CC)N=Nc1ccc(S(=O)(=O)N2CCSC2C(=O)O)cc1 (stereo not given)	-0.9	0.429
COc1cc(C)c(C(=O)CCC(=O)O)cc1C	1.5	-0.241
Cc1ccc2c(COC(=O)Cn3c(C)csc3=O)cc(=O)oc2c1C	0.6	/
Nc1nnc(SCC(=O)N2CCCCCC2)s1	-0.5	/
CCOC(=O)C1(C)NC(c2ccc(F)cc2)C2C(=O)N(CC)C(=O)C21 (stereo not given)	1.2	0.367
COc1cc(/C=N/NC(N)=O)cc2sc(=O)oc12	2.6	-0.136
N#CC1=C(N)N2CCCSC2=C(C#N)C1c1ccccc1 (stereo not given)	3.7	/
CCC1CCCCN1C(=O)CSc1nnc(-c2cccnc2)n1-c1ccc(OC)cc1 (stereo not given)	-3.6	3.06
CC(=O)NS(=O)(=O)c1ccc(NC(=O)C(C)NS(=O)(=O)/C=C/c2ccccc2)cc1 (stereo not given)	-1.1	/
CC(Sc1nc2sc3c(c2c(=O)n1Cc1ccco1)CCC3)c1nc2ccccc2c(=O)[nH]1 (stereo not given)	2.0	/
O=C1c2ccccc2C(O)(Cc2ccccc2)N1C1CCCCC1 (stereo not given)	1.6	-0.824
Cc1c(N)cc(N)cc1C(=O)O	2.5	-0.128
COc1ccc2[nH]c3nc(SCC(=O)NC(C)(C)C)nnc3c2c1	2.2	-0.821
Cc1c(Cl)cccc1NC(=S)N1CCCN(c2nc3ccc(Cl)cc3s2)CC1	-0.6	/
O=C(CN1CSCC1=O)Nc1cc(C(F)(F)F)ccc1NC1CCCCC1	1.7	/
COc1cc(CC(=O)NC2CCC(C)CC2)cc(OC)c1OC (stereo not given)	-3.6	/
C/C(=N\NC(=O)CNc1ccccc1)c1ccccc1	-1.1	0.223
O=C(/C=C/C=C/c1ccccc1)c1ccncc1	2.2	-0.09
Cc1nn(S(=O)(=O)c2ccc(Cl)cc2)cc1-c1nsc(Nc2ccccc2)n1	1.5	-0.0505
CCOc1ccc(C2C(C(=O)OC)=CN(CC(C)C)C=C2C(=O)OC)cc1OC	0.4	0.387
CSc1nnc([C@H](C)NC(=O)OC(C)(C)C)o1	1.4	0.939
Cc1cc(C)c(C(=O)CSC2=NC(N)=C(C#N)C3(CCCCC3)C2C(N)=O)cc1C (stereo not given)	2.6	0.695
COC(=O)c1ccc(S(=O)(=O)N2CCC(O)CC2)n1C	1.1	0.952
C=CCn1c(SCc2cn3ccccc3n2)nnc1-c1cccc(S(=O)(=O)N(CC)CC)c1	0.2	/
CCCOc1ccc(C(=O)CCN(C)C)cc1	-0.3	-0.114
CC(=O)Nc1ccc(N2CCOCC2)c(Cl)c1	-0.3	-0.297
COc1ccc(CCCc2nnc(SCC(=O)NN)o2)cc1	-0.7	/
C=CCNC(=O)c1ccc(-c2ccccc2)cc1	-0.1	/
O=C(N/C(=C\c1ccco1)C(=O)N1CCCC1)c1ccccc1	2.2	0.77
COCCN1C(=O)C(=O)/C(=C(/O)c2ccccc2)C1c1ccccc1 (stereo not given)	0.2	-0.285
COc1ccc(NC(=O)C2=Cc3cccc(OC)c3OC2)cc1	-1.1	-1.12
CN(C(=O)Nc1noc2c1COc1ccccc1-2)C1CCCCC1	1.9	-0.581

Part of the list above, with two lines to a compound.
Every second line gives: BasE inh	KSHV LANA nucl
- O=C(/C=C/C=C/c1ccccc1)c1ccncc1
→ 2.2	-0.09
- CNc1ncc(C(=O)c2ccccc2)s1
→ /	2.61

The results go on:
structure	BasE inh	KSHV LANA nucl
CCN(CC)S(=O)(=O)c1ccc(NC(=O)CSc2nncn2-c2ccccc2)cc1	-0.5	/
O=C(CSC1CC(=O)N(c2ccccc2)C1=O)Nc1ccc(F)cc1 (stereo not given)	1.4	0.251
COc1ccc(C(=O)COC(=O)CCn2c(C)csc2=O)c(OC)c1	-0.3	/
COc1cccc(NC2=NC3(CCCC3)N=C(N)N2)c1	1.4	/
O=C(Cn1cnc2c(nnn2Cc2ccc(Cl)cc2)c1=O)NCc1ccc2c(c1)OCO2	-0.5	0.0535
COc1ccc(CNC(=O)CN(C)Cc2ccccc2F)cc1OC	1.4	/
CC(C)CC(NC(=O)c1ccco1)C(=O)O (stereo not given)	1.5	-0.629
C#CCn1c(=NC(=O)CSCC(=O)N2CCCC2)sc2ccccc21	-0.6	0.098
Cc1ccccc1Cn1nc(-c2ccco2)ccc1=O	-1.3	-1.35
O=C(NCc1ccccc1Cl)C1CC1	1.0	0.767
N#CC(C#N)=CNNc1ncnc2sccc12	5.5	0.251
O=C(/C=C/c1ccco1)Nc1cccc2cccnc12	1.8	/
CC(C)CC(=O)Nc1cc(Cl)ccc1Cl	4.4	0.524
COc1ccc(C(=O)OCc2c(C)noc2C)cc1S(=O)(=O)NCc1ccc(Cl)cc1	2.6	/
Cc1ccc(-n2nc(C)c3onc(C)c3c2=O)cc1	2.3	-0.21
COc1ccc(-c2csc(/C(C#N)=C(\O)CSc3nnc(-c4ccccc4F)n3C3CC3)n2)cc1OC	-2.0	/
CCC(c1ccccc1)c1nc(-c2ccccc2)no1 (stereo not given)	1.8	-0.293
CCCC(=O)Nc1ccc(C(=O)NN)cc1	0.1	/
Cc1ccc(CN(C)C(=S)Nc2cccc(C(F)(F)F)c2)o1	1.0	/
Cn1c(N/C(=C/C(=O)c2cccs2)C(F)(F)F)nc2ccccc21	2.1	/
COc1ccccc1NC(=O)CC(C)(C)C	0.5	-0.623
COC(=O)c1ccc(-c2cnco2)cc1	/	0.337
Cc1ccc(Cn2c(=O)c3ccccc3n3c(SCC(N)=O)nnc23)cc1	3.1	/
COc1ccc(CC(=O)n2nc(-c3ccc(F)cc3)cc2SC)cc1OC	-0.4	/

A second format for part of the listing above.
Cc1ccc(CN(C)C(=S)Nc2cccc(C(F)(F)F)c2)o1
  BasE inh: 1.0	KSHV LANA nucl: /

Cn1c(N/C(=C/C(=O)c2cccs2)C(F)(F)F)nc2ccccc21
  BasE inh: 2.1	KSHV LANA nucl: /

COc1ccccc1NC(=O)CC(C)(C)C
  BasE inh: 0.5	KSHV LANA nucl: -0.623

Continued:
SMILES	BasE inh	KSHV LANA nucl
COc1ccc(C=NNC(=O)Cn2cnc3c(=O)n(C)c(=O)n(C)c32)cc1	-2.1	0.385
CN(CC(=O)N1CCC(C(N)=O)CC1)S(=O)(=O)c1ccc(Br)cc1	-4.0	0.175
CNC(=S)N(Cc1cccnc1)Cc1cc2cc(OC)ccc2[nH]c1=O	-1.0	0.855
NC(N)=Nc1nc2ccccc2s1	-4.2	/
Cc1noc2ncnc(SCc3ccc(C(F)(F)F)cc3)c12	1.2	/
CCC(=O)N1CCc2cc(S(=O)(=O)CCC(=O)N3CC(=O)N(CCc4ccccc4)C(=O)C3)ccc21	1.5	0.363
c1ccc2c(c1)nnn2C12CC3CC(CC(C3)C1)C2	-4.9	2.44
N#C/C(=C\C1CC=CCC1)c1nc2ccccc2c(=O)[nH]1 (stereo not given)	0.4	0.594
CN(C)c1nc(-c2cn(CCC#N)c3ccccc23)cs1	0.8	/
COc1cc(C(=O)Oc2ccc(C#N)cc2)cc(OC)c1OC	1.3	-1.06
Cc1onc(-c2c(Cl)cccc2Cl)c1NC(=O)N1CCCN2C(=O)c3ccccc3C12 (stereo not given)	-1.7	-0.661
Cc1ccc(CNC(=O)CSc2nc3cnn(C)c3c(=O)n2Cc2ccccc2)cc1	0.8	/
Cc1onc(-c2ccccc2Cl)c1-c1nc(-c2ccc(Br)cc2)no1	1.4	-1.21
CCN1CCN(Cc2ccc(NC(=O)Nc3cc(F)ccc3F)cc2)CC1	0.5	-0.397
Cc1ccc(OC(C)(C)C(=O)Nc2ccc(Oc3ccc(F)cc3F)nc2)c2c1CCC2	-1.0	/
CCOc1ccccc1/C=N\n1cnnc1	2.0	/
O=S1(=O)N=C(N2CCOCC2)c2ccccc21	1.4	-0.404
COc1cccc(NC(=O)c2oc3ccccc3c2NC(=O)c2ccc3c(c2)OCO3)c1	-1.4	1.87
Cc1ccc(C)c(Cn2c(N3CCC(C(=O)NCc4ccco4)CC3)nc3ccccc32)c1	-0.4	1.48
COc1ccc2c(C)cc(SCc3cn4ccsc4n3)nc2c1	-2.3	/
CCOC(=O)c1c(C)[nH]c(C)c1C(=O)COC(=O)c1ccc(S(=O)(=O)N(CC)CC)cc1	-1.0	/
CCOC(=O)c1ccc(N2C=C(C(=O)OC)C(c3cccc(O)c3)C(C(=O)OC)=C2)cc1	1.7	0.622
Cc1cccc(N=Cc2c(O)[nH]c3ccccc23)c1	0.1	1.15
Cc1cccc(Nc2ccccc2C(=O)NCc2ccco2)c1C	1.9	/
Cc1cc2ccccc2nc1SCC(N)=O	-4.6	-0.199
CC(C)(C)c1ccc(-c2n[nH]c(S(C)(=O)=O)c2C#N)cc1	-0.4	/
O=C(OCCN1C(=O)c2ccccc2C1=O)c1ccccn1	4.5	/
Cc1ccccc1N=C(NN)c1ccccn1	2.6	0.604
CC(=O)N1N=C(Cn2nc(C)cc2C)OC1(C)c1ccccc1 (stereo not given)	-1.3	0.119
N#C/C(=C\c1c[nH]c2ccccc12)C(N)=O	0.6	-0.837
COc1ccc(-c2noc(CC(=O)N(Cc3ccco3)C3CCCCC3)n2)cc1	-1.9	0.256
Oc1ccc(-c2n[nH]c(C(F)(F)F)c2-c2ccccc2)c(O)c1	0.2	/
O/N=C1/CC(O)(C(F)(F)F)Oc2ccccc21 (stereo not given)	0.3	/
Cc1oc(-c2cccc(C(F)(F)F)c2)cc1CO	2.4	-0.285
Cc1nc2ccccn2c1-c1ccnn1C(=O)c1ccc(Cl)cc1	1.3	/
CN(C)C(CNC(=O)c1ccc2ncsc2c1)c1cccs1 (stereo not given)	4.5	/
Cc1cc(C(=O)CSCc2ccc(Cl)c(Cl)c2)c(C)n1Cc1ccco1	-5.3	/
CC(C)Cc1cc(-c2ccc(F)cc2)c(C#N)c(N)n1	0.9	0.163
CC(C)CN(C(=O)CSc1nccn1C)C1CCS(=O)(=O)C1 (stereo not given)	1.1	/
O=C(N/N=C/c1ccc(Br)cc1)c1ccccc1-n1cccc1	0.3	/
Nc1[nH]n(-c2ccccc2)c(=O)c1N=Nc1ccc(Cl)cc1	3.6	-0.769
O=C(COc1c(F)c(F)cc(F)c1F)C12CC3CC(CC(C3)C1)C2	-0.8	/
Cc1ccc(CN2C(=O)CCC2C(=O)NCc2ccco2)cc1 (stereo not given)	-3.8	3.29
Cc1cc(/C=C/C(=O)O)c(C)n1-c1ccccc1	0.5	/
COC(=O)c1ccc(COc2ccccc2)o1	-3.2	/
Cc1ccc2c(n1)sc1c(=O)n(Cc3ccccc3)nnc12	1.6	0.0275
CCOC(=O)N1CCN(C(=O)/C(=C/c2ccccc2Cl)c2ccccc2)CC1	-1.0	/
CCCOc1ccccc1C1C(C(=O)OC)=CN(C2CCCC2)C=C1C(=O)OC	-4.3	2.1
N#CCN(CC#N)C(=O)c1ccc(C(=O)N(CC#N)CC#N)cc1	0.6	/
CCOC(=O)c1cn(C(=O)CCSc2ccc(OC)cc2)nc1N	2.4	/

Other records
SMILES	BasE inh	KSHV LANA nucl
CC(=O)Nc1cccc(NC(=O)c2nc(-c3ccccc3)oc2C)c1	-2.4	/
CCn1cc(C(=O)N2CCOCC2)c(=O)c2cc(S(=O)(=O)N3CCc4ccccc4C3)ccc21	-0.7	-0.443
CCN(Cc1ccccc1)C(=O)CSc1nncn1C	1.4	/
O=C(CON1C(=O)c2ccccc2C1=O)c1ccc(O)cc1O	2.0	0.104
